Bioassay records: PubChem BioAssay, National Center for Advancing Translational Sciences (NCATS)
RE007 growth inh = less growth of the S. pombe RE007 Vpr strain. hit rate 0.21% among 360,000. S. pombe RE007 Vpr strain, BacTiter-Glo ATP luminescence, 24 h; control for the full effect not named in the record. Potency, µM (doses to about 92.2 µM), for inactives: at the highest dose activity change, negative = less growth; active = well fitted falling curve with a large enough effect; inconclusive = small, poorly fitted or top-dose-only effect; inactive = no such curve, though single readings can be large or run the other way;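 also: % is scaled to controls: 0 for no effect and ±100 for the full control effect; nearly all actives have a fitted effect of over 50% in size; the assay follows cell death caused by Vpr and the record does not say whether a fall means rescue or toxicity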
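Fission yeast strain RE007, carrying one chromosomally integrated HIV-1 vpr copy, was seeded at OD 0.01 in PMG+AL medium with 23 nL pinned compound. After 24 h at 30 °C and 99% humidity, viability was read by BacTiter-Glo luminescence.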
Cruzain inh noDet = cruzain (T. cruzi) inhibition without detergent; purified cruzain, Z-FR-AMC fluorescence, no detergent; Potency, µM, for inactives: max response, negative = inhibition, actives largely listed as inhibitors; hit rate 2.3% among 200,000; P25779;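 also: plate controls were enzyme without inhibitor for no effect and buffer without enzyme for full effect; nearly all actives have a fitted effect of over 40% in size; top concentration of the series not given in the record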
Target sequence (P25779 123-467 limits assumed): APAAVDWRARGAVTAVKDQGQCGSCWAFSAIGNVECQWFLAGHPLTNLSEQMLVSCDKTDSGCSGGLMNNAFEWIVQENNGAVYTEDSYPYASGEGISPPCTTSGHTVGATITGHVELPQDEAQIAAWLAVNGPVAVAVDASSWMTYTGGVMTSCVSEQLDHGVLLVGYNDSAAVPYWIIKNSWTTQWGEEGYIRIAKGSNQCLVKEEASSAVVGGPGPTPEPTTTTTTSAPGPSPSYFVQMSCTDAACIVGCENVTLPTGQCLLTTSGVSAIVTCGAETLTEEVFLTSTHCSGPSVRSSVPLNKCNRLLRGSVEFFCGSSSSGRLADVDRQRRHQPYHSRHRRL
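Detergent-free condition (0.00005% Triton X-100) in acetate buffer pH 5.5 with DTT. 1.5 nM enzyme and compound were pre-mixed 15 min, then 2 uM Z-FR-AMC substrate added; reaction progress from fluorescence change between first and third reads (60 s).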
NS1 inh = influenza NS1 inhibition; S. cerevisiae slowed by influenza A NS1, growth recovery by OD600; hit rate 0.4% among 270,000; AID 2326; Potency, µM (doses to about 46.1 µM), inactives show at the top dose activity, positive = more growth; active means well fitted rising curve with a large enough effect; inconclusive means small, poorly fitted or top-dose-only effect; inactive means no such curve, though single readings can be large or run the other way; also: nearly all actives have a fitted effect of over 50% in size
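OD600 was taken as the measure of yeast growth restored by compound in an NS1-expressing S. cerevisiae strain. Cells had been washed out of glucose medium and diluted 1:100 into galactose -URA medium, pH 6.0.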
SARS PLpro yeast = SARS-CoV PLP inhibition in yeast | S. cerevisiae expressing SARS-CoV PLpro, growth rescue; control for the full effect not named in the record | Potency, µM (series often up to 32.9 µM), inactives show at the top dose activity, positive = growth rescue | hit rate 0.19% among 330,000 | AID 485353; active means well fitted rising curve with a large enough effect; inconclusive means small, poorly fitted or top-dose-only effect; inactive means no such curve, though single readings can be large or run the other way; also: 0% is about no effect; nearly all actives have a fitted effect of over 55% in size; growth read by luminescence after 48 h
MARV entry inh = blocks Marburg virus binding to or entry into cells. Marburg virus pseudotyped entry inhibition, cell reporter; control for the full effect not named in the record; about a third of the inactives were read at about 46 µM. Potency, µM (titrated, usually from 37.8 µM), for the others: at the highest dose activity change, negative = inhibition, actives largely listed as inhibitors. hit rate 1.8% among 300,000. AID 540276; active = well fitted inhibition curve with a large enough effect; inconclusive = small, poorly fitted or top-dose-only effect, or effect the other way; inactive = flat fitted curve, though single readings scatter; tested in HEK293 cells; about a fifth of its hits are not listed in these tables; also: % is scaled to controls: 0 for no effect and ±100 for the full control effect; luciferase read-out
Lassa entry inh = inhibitors of Lassa virus binding or cell entry | Lassa virus pseudotype entry inhibition, cell reporter; control for the full effect not named in the record | hit rate 1.2% among 300,000 | Potency, µM (titrated, usually from 37.9 µM), for the others: at the top dose activity change, negative = inhibition, hits mostly inhibitors; active means well fitted inhibition curve with a large enough effect; inconclusive means small, poorly fitted or top-dose-only effect, or effect the other way; inactive means flat fitted curve, though single readings scatter; tested in HEK293 cells; also: % is scaled to controls: 0 for no effect and ±100 for the full control effect; nearly all actives have a fitted effect of over 50% in size; luciferase read-out
StopGo reporter = FMDV 2A StopGo reporter, luciferase signal; human cells with a luciferase reporter of 2A StopGo recoding; control for the full effect not named in the record; Potency, µM (series often up to 57.9 µM), for inactives: at the highest dose signal change, negative = less light; hit rate 1.2% among 410,000; active = well fitted falling curve with a large enough effect; inconclusive = small, poorly fitted or top-dose-only effect; inactive = no such curve, though single readings can be large or run the other way; tested in HEK293T cells; also: % is scaled to controls: 0 for no effect and ±100 for the full control effect; nearly all actives have a fitted effect of over 45% in size; luciferase light after 4 h
Cruzain inh Det = blocks cruzain activity in presence of Triton detergent; P25779; purified cruzain, Z-FR-AMC fluorescence, 0.01% Triton; Potency, µM, inactives show max response, negative = inhibition, hits mostly inhibitors; hit rate 0.43% among 200,000;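 also: plate controls were neutral wells for no effect and buffer without enzyme for full effect; nearly all actives have a fitted effect of over 40% in size; top concentration of the series not given in the record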
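Detergent-containing arm of a paired screen for aggregation-based inhibition: 0.01% Triton X-100 present. Cruzain at 1.5 nM cleaved 2 uM Z-FR-AMC at pH 5.5 with 5 mM DTT; AMC fluorescence gain over 60 s measured activity.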
Numbers without * were called inactive; ? = inconclusive; . = not tested or not shown; & = joins results of further samples; [ ] = another dose, or the depositor's remark. Unless noted, calls follow the shape of the dose curve; as a rule, active = well fitted curve in the direction sought with a large enough effect; inconclusive = small, poorly fitted or top-dose-only effect, or another doubt; inactive = no such curve, though single readings can be large; an effect the other way counts as inactive or inconclusive. Potency is read from the fitted curve at half-maximal effect.

SMILES	RE007 growth inh	Cruzain inh noDet	NS1 inh	SARS PLpro yeast	MARV entry inh	Lassa entry inh	StopGo reporter	Cruzain inh Det
Cn1cnc([N+](=O)[O-])c1S(=O)(=O)c1ccc(Cl)cc1	?	11%	-62%	-43%	?	20µM*	14µM*	0.3%
Cc1cnc(NC(=O)CSc2nnc(C)s2)s1	-7%[3.69 µM]	-12%	-17%	10%	?	-2%	-7%	1.4%
COC(=O)Cc1ccc(N(Cc2ccccc2F)S(=O)(=O)c2ccc(Br)cc2)cc1	0%	-25%	-43%	-21%	-22%	-20%	-19%	-2.4%
CCCCCCC(=O)c1c(O)n(-c2ccc(OC)cc2)c(=O)[nH]c1=O (tested in a mixture with another compound)	-3%	.	8%	1%	.	.	1%	.
Cc1csc(N)n1	3%	0%	-2%	-2%	17%	2%	-21%	1.7%
COc1ccc2[nH]c(=O)c(CNc3ccc(C)c(C)c3)cc2c1	3%	4%	16%	-3%	-1%	?	-26%	-3.6%
CCN(CC)S(=O)(=O)c1cc(NC(=O)C2CCN(c3ncnc4sc(C)c(C)c34)CC2)ccc1Cl	-6%	.	.	-2%	3.5µM*	?	8.9µM*	.
Cc1ccc(CCNC(=O)c2ccc3c(c2)nc2n3CCCCC2)cc1	.	-14%	.	.	.	-27%[46.1 µM]	-3%	2.5%
O=C(CCN1CCCCC1)NCNC(=O)CCN1CCCCC1	20%	-5%	2%	-1%	?	-21%	-3%	3.3%
CC(=O)Nc1ccccc1OCc1nnc(-c2cccs2)o1	5%	1%	-7%	-2%	?	12%	15%	3.5%
Cc1ccc2c(c1)NC(=O)c1cccnc1O2	.	?	.	.	17%[46.1 µM]	0%[46.1 µM]	-16%	-1.5%
Cc1cc(C)c(S(=O)(=O)Nc2ccc(-c3ccc(N4CCCCC4)nn3)cc2)cc1C	.	?	.	.	.	?	47%[activator]	-5.2%
O=C(C1CCCN(c2ncnc3c2nc2n3CCCCC2)C1)N1CCN(c2ccc(Cl)cc2)CC1 (stereo not given)	9%	.	-64%	-12%	?	?	?	.
O=C(c1cc(-c2cccs2)on1)N1CCCc2ccccc21	-1%	-10%	-107%	-17%	.	.	47%[activator]	-5.2%
CCN(CC)CC(C)OC(=O)c1ccccc1Cl (stereo not given)	10%	.	.	-2%	-1%	4%	-7%	.
COCCN(CC(=O)Nc1cccc(C)c1C)C(=O)c1ccc(S(=O)(=O)N2CCOCC2)cc1	3%	.	.	0%	?	-6%	-2%	.
Cn1c(=O)c2c(-c3ccccc3Br)n(Cc3ccccc3)cc2n(C)c1=O	.	-9%	.	.	2%[46.1 µM]	?	-22%	-5.5%
O=C(CSCc1ccco1)c1ccc(Cl)s1	.	-1%	11%	2%	-4%	.	.	-8.9%
O=C(NC(=S)Nc1nc(-c2ccccc2)cs1)c1cccnc1	-22%	.	.	-2%	-3%[46.1 µM]	14%	16%	.
CN(C)CCCN(C(=O)c1ccc([N+](=O)[O-])s1)c1nc2cc3c(cc2s1)OCCO3	-10%	.	-19%	0%	.	.	-29%	.
COc1ccc(Cc2nnc(NS(C)(=O)=O)s2)cc1	-18%	7%	3%	0%	17%	?	-16%	10%
O=C(COC(=O)C1CC1)c1c[nH]c2ccccc12	-9%	4%	-11%	-5%	?	?	63%[activator]	2.8%
Cc1cc(C)c(NC(=O)COC(=O)Cc2ccsc2)c(C)c1	-11%	.	.	3%	-10%	-7%	-20%	.
O=C(NCCCN1CCOCC1)c1ccc(/C=C2\Oc3ccccc3N(Cc3ccccc3F)C2=O)cc1	5%	.	9%	-2%	.	.	?	.
COC(=O)N(c1ccccc1)P1(=S)OCCO1	?	0%	-57%	3%	26%	?	0%	-0.8%
Cc1cc(C)n2c(SCc3c(C)noc3C)nnc2n1	-4%	9%	4%	13%	16%&16%	-1%	-2%	-2.5%
CCC(=O)c1ccc(OCC(O)Cn2nc(C)c(Br)c2C)cc1 (stereo not given)	13%	.	-16%	-6%	.	.	-15%	.
O=C(NCc1cccs1)N[C@@H](Cc1ccccc1)C(=O)O	-5%	-8%	-6%	1%	2%	16%	-8%	0.3%
COc1ccccc1C(=O)Nc1nc(C)cc(C)n1	-7%	.	.	.	-4%[46.1 µM]	-11%	8%	.
Cc1ccc2c(Sc3ccc(Cl)cc3)c(C(=O)N3CCCCC3)[nH]c2c1	.	10%	.	.	?	-4%[46.1 µM]	0%	4.4%
O=C(NCc1ccco1)C1CCCN(c2nnc(-n3cccc3)s2)C1 (stereo not given)	16%	.	-5%	-18%	.	.	8%	.
CCOc1ccc(CCNC(=O)c2cccc(NC3=NC4CS(=O)(=O)CC4S3)c2)cc1OCC (stereo not given)	-6%	.	11%	1%	.	.	-12%	.
COc1ccc(C)cc1NC(=O)C(Sc1nnc2ccccn12)c1ccccc1 (stereo not given)	-1%	?	-9%	10%	?	5%	4%	-2.5%
O=C(CSc1nncs1)NCc1ccc(F)cc1	-18%	.	-8%	-2%	0%[46.1 µM]	8%	-6%	.
O=C(NC(NCc1ccccc1)C(Cl)(Cl)Cl)c1cccnc1 (stereo not given)	16%	-2%	-7%	5%	?	-3%	-20%	0.7%
COCCN(C(=S)Nc1ccc(OC)cc1)C1CCN(C(C)C)CC1	0%	-3%	-1%	11%	10%	-2%	-11%	-1.4%
O=C(O)CCn1c(=S)oc2ccccc21	4%	-5%	5%	7%	15%	20%	.	0.3%
Cc1ccc(-n2nc(CO)c(C(=O)NCCO)n2)cc1	.	-11%	.	.	16%[46.1 µM]	5%[46.1 µM]	33%[activator]	1.8%
CC(=O)NC(=S)Nc1ccc(-c2nc3ccc(C)cc3s2)cc1	2%	6.3µM*	-3%	2%	9%	26%	.	-0.6%
Cc1cccc(N2CN=C3SCC(=O)N3C2)c1	-7%	.	0%	0%	.	.	7%	.
Cc1cc(C)c2c(=O)n(CC(=O)N3CCC(Cc4ccccc4)CC3)sc2n1	.	-8%	-103%	-87%	-1%	-1%	.	-9.1%
Cc1ccc(/C=N/NC(=O)c2nc3nc(C)cc(C)n3n2)cc1	23%	-10%	4%	1%	12%	-1%	14%	-2.5%
COC1(C2=NCCN2)COc2ccccc2O1 (stereo not given)	0%[18.4 µM]	7%	0%	.	8%&-11%&8%	10%	-12%	2.3%
COc1cccc(CN2CCN(c3cccc(C(F)(F)F)c3)CC2)c1OC	-8%	-15%	-18%	3%	-9%	-16%[14.3 µM]	-27%	-1.4%
COc1ccc(N(C)S(=O)(=O)c2cccc(C(=O)Nc3ccc4c(c3)OCCO4)c2)cc1	12%	.	.	-2%	10µM*	?	-10%	.
O=C(CCSCc1ccc(Cl)cc1)NCCc1ccccc1	6%	-5%&4%	-17%	-13%	?	?	-14%&-19%	0.0%&-8.6%
Cc1ccc(S(=O)(=O)NC(Cc2c[nH]c3ccccc23)C(=O)O)cc1 (stereo not given)	-8%	.	.	.	-32%	12%	-8%	.
O=C(NCc1nnc(SCC(=O)N2CCN(c3ccccc3)CC2)o1)c1ccccc1	4%	.	4%	0%	.	.	6%	.
CC(c1nc2ccccc2o1)N1C(=O)c2ccccc2C1=O (stereo not given)	13%	-12%	13%	8%	1%	5%	.	-3.5%
CCOC(=O)c1cccc(NS(=O)(=O)c2c(C)[nH]c(=O)[nH]c2=O)c1	8%	-2%	-5%	6%	?	-3%	0%	1.1%
N=c1c(C(=O)NCC2CCCO2)cc2c(=O)n3ccccc3nc2n1CCCO (stereo not given)	.	?	.	.	18%[46.1 µM]	-16%[46.1 µM]	-23%	?
CCN(CC)C(=O)CSc1nc2cc(S(=O)(=O)N3CCOCC3)ccc2n1CC	-4%	.	-1%	-2%	7%	-16%	-18%	.
CS(=O)(=O)Nc1nnc(SCC(=O)Nc2cccc([N+](=O)[O-])c2)s1	-4%	9%	-3%	16%	.	.	-3%	-4.8%
COc1ccc(OC)c(NC(=O)c2nnn(CC(=O)Nc3ccc(C(C)C)cc3)c2N)c1	.	-24%	.	.	.	?	-13%	-4.6%
CCOC(=O)c1c(C)[nH]c(C(=O)OCC(=O)Nc2ccc(OC)c(Cl)c2)c1C	-4%	-18%	-7%	1%	0%	?	9%	2.4%
O=c1c2sc3ccccc3c2n(Cc2ccccc2)c(=O)n1CCc1ccccc1	.	-3%	.	.	6%[46.1 µM]	20%[46.1 µM]	0%	0.4%
O=C(Cn1c(=O)n(CC2CCC(C(=O)NCCc3ccccc3)CC2)c(=O)c2ccccc21)Nc1cccc(F)c1 (stereo not given)	.	-11%	.	.	1%[46.1 µM]	?	-19%	-1.2%
O=S(=O)(c1ccc2ccccc2c1)N1CCCOC1	-5%	-9%	-3%	1%	?	-1%	10%	2.2%
Cc1ccc(C)c(Cn2nnc3c(=O)[nH]c(C(=O)NCC4CCCO4)nc32)c1 (stereo not given)	3%	-11%	-4%	17%	?	7%	1%	-0.4%
CCOc1ccc(CNc2ccc(S(N)(=O)=O)cc2)cc1	4%	.	3%	0%	?	7%	-21%	.
The listing continues:
SMILES	RE007 growth inh	Cruzain inh noDet	NS1 inh	SARS PLpro yeast	MARV entry inh	Lassa entry inh	StopGo reporter	Cruzain inh Det
CCOc1ccc(Nc2ncnc3c2cnn3Cc2ccccc2)cc1	13%	2%	-14%	-10%	?	?	-18%	-2.5%
COc1cc(C(=O)N(Cc2ccco2)Cc2cc3ccccc3[nH]c2=O)cc(OC)c1OC	5%	5%	-4%	7%	-13%	?	-10%	1.0%
CN(C)CCNC(=O)c1ccc(CS(=O)(=O)c2c(Cl)cccc2Cl)o1	-14%	-10%	-6%	0%	.	.	-19%	2.2%
COc1ccc(CCNC(=O)c2c(-c3ccccc3)noc2C)cc1OC	-4%	-5%	6%	-5%	3%	-13%	.	6.1%
O=C(Nc1cc2c(oc1=O)CCCC2=O)c1cccc(Cl)c1	-5%	-5%	-3%	-6%	7%	2%	29%	0.6%
